Screening data deposited in PubChem BioAssay by several laboratories.
RanGTP-Impb inh – inhibitors of RanGTP-importin-beta interaction, primary screen, biochemical, FRET, CFP-Ran, YFP-importin-beta, homogeneous; cell-free CFP-Ran/YFP-importin-beta FRET ratio; AID 2216, 2009; Ran GTPase (GTP-bound) - importin-beta complex; inhibition, % (concentration not given with the values); hit rate 1.1% among 300,000;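 active = most replicates above 15%; inconclusive = exactly half above 15%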;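 note: 0% = DMSO wells and 100% = Ran loaded with GDP instead of GTP; wells of about 40 µL received 100 nL stock; the first replicate is given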
T cruzi repl – inhibitors of intracellular T. cruzi growth, primary screen, luminescence, NIH3T3 host cells. T. cruzi beta-gal in NIH3T3, 90 h. inhibition, % (no concentration beside the values). hit rate 1.4% among 300,000;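 active = mean inhibition across valid replicates above about 55%, limit read from the data; inconclusive = mean below that limit but half or more replicates reach it; inactive = mean below it, under half of replicates reach it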;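 note: signal also drops with host cell toxicity which is not excluded here; 0% = plate median of DMSO wells and 100% = zero luminescence signal; higher percent means less beta-gal luminescence so fewer parasites; stock transfer was 50 nL into about 50 µL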
Calb FLC – C. albicans growth inhibition with fluconazole, primary screen, CaCi-2 strain, Alamar Blue fluorescence | C. albicans CaCi-2 (fluconazole-resistant clinical isolate) + fluconazole, 48 h | growth inhibition, % (no concentration beside the values) | hit rate 0.57% among 300,000;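 active = most replicates above 75%; inconclusive = exactly half above 75%; inactive = most below 75%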;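 note: all wells also contain fluconazole at 8 µg/ml as a sub-toxic cotreatment; 0% = median of DMSO wells and 100% = median of geldanamycin control wells; wells of about 8 µL received 7.5 nL stock; the first replicate is given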
Bfl-1 A1 inh – caspase 3/7 activation in MEF A1-2A-BIM cells, primary screen, A1 inhibitor project, cell-based, luminescence, HTS. Caspase-Glo 3/7 luminescence, 3 h; percent of clofoctol response, vehicle zero. caspase activation, % (concentration not given with the values). hit rate 0.066% among 330,000;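 active = over half of replicate activation scores above 10%, or exactly half above 10 with the replicate mean above 10; inconclusive = replicate mean below 10 yet half the replicates above 10; inactive = over half of replicates below 10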;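 note: wells of about 30 µL received 50 nL stock; many hits fall short of the cut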
Beta cell apopt – inhibitors of cytokine-induced beta cell apoptosis, primary screen, luminescence; INS-1E cytokine-induced death, ATP luminescence, 48 h; percent of positive-control rescue, neutral wells zero; protection from apoptosis, % (no concentration beside the values); hit rate 0.8% among 300,000; AID 435005, 2010;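 active = all replicates at 75% or more, or half of them and the mean; inconclusive = half reach 75% but not the mean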;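 note: 0% = cytokine-treated negative control wells and 100% = positive control rescue; higher means more ATP so stronger rescue from cytokine killing; wells of about 40 µL received 100 nL stock; the first replicate is given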
Ecoli rRNA inh – reduced GFP signal of wild-type E. coli, primary screen, bacterial rRNA inhibitor project, GFP/RFP fluorescence, OD600, single point; E. coli WT GFP vs humanized-ribosome RFP mutants, 24 h; stronger effect = lower value; DMSO median 0, no signal -100; AID 720706, 2013; GFP signal change (wild-type ribosome), % (test concentration not listed); hit rate 1.6% among 350,000;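 active = significant combined selectivity score with lowered wild-type GFP, culture density cut under 30%, mutant RFP and density less affected; inactive = any of these conditions unmet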; note: one replicate is shown; some compounds called inactive have numbers as strong as hits
MLL AF4-AF9 inh – inhibitors of AF4 peptide binding to AF9, primary screen, biochemical, AlphaScreen, biotin-AF4 peptide, FLAG-AF9, single point; Protein AF-9 (Homo sapiens), P42568; inhibition, % at 10 µM; hit rate 0.47% among 350,000; AID 651704, 2012;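 active = every replicate reaching a set inhibition limit, whatever the replicate mean, cut at about 25% in these data; inconclusive = mean inhibition reaches that limit but some replicates miss it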;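 note: 0% = plate neutral control median and 100% = total signal loss; the record names both 10 and 1 µM as test concentration; the first replicate is given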
Target sequence (P42568 whole entry, looked up): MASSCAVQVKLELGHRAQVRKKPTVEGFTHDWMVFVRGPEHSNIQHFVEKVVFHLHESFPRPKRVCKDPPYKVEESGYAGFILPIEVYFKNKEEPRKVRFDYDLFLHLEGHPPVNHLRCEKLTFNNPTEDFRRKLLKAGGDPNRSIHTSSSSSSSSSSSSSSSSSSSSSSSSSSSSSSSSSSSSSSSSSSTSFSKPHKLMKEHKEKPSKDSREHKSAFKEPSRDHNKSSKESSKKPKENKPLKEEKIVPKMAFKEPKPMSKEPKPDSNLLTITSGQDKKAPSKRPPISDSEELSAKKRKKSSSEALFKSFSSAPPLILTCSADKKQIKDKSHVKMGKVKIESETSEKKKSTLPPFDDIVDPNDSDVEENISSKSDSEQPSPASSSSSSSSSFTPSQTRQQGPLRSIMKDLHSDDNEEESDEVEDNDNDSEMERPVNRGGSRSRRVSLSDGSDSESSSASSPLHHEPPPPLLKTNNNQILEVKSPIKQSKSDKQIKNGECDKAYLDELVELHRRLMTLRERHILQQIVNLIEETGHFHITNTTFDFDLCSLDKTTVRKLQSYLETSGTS
Vif A3G – inhibitors of Vif binding to APOBEC3G peptide, primary screen, biochemical, TR-FRET, GST-Vif 1-94, biotin-A3G peptide, dose response retest (AID 1117319); Virion infectivity factor (Human immunodeficiency virus type 1 group M subtype B (isolate …; TR-FRET GST-Vif / biotin-A3G peptide binding; higher % means a stronger effect; test concentration not given here; strong numbers were not always called active; inhibition, %; hits with a dose series show IC50 in µM; hit rate 0.57% among 260,000;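 active = above the screen mean plus three standard deviations and confirmed in dose response; inconclusive = results disagree or hit not tested in dose response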;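 note: Vif residues 1-94 fused to GST binding biotinylated APOBEC3G peptide 110-148; 0% = full assay without inhibitor and 100% = GST in place of GST-Vif; retest series ran down from 100 µM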
Ecoli rRNA inh OD600 – further read-out of Ecoli rRNA inh, marked with its call; OD600 change, %; measured here: OD600 growth;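 optical density of the mix in the first replicate; 0 = DMSO median and -100 = no signal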
Ecoli rRNA inh RFP – further read-out of Ecoli rRNA inh, marked with its call; RFP signal change, %; measured here: RFP humanized mutant strains;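 first replicate; 0 = DMSO median and -100 = no signal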
Active calls of the source: *; ? = inconclusive; nt = not tested or not shown; & = joins results of further samples. Not all compounds are listed; rates above refer to the full screens.

Molecule	RanGTP-Impb inh	T cruzi repl	Calb FLC	Bfl-1 A1 inh	Beta cell apopt	Ecoli rRNA inh	Ecoli rRNA inh OD600	Ecoli rRNA inh RFP	MLL AF4-AF9 inh	Vif A3G
O=C(C1CCN(CC2CC=CCC2)CC1)N(CCc1ccccc1)Cc1ccccc1 (stereo unspecified)	1.3	9	-7	-0.2	4	-12	-23	6.2	1.8	-2%
COC(=O)C1(C)NC(c2ccc(O)cc2)C2C(=O)N(c3ccc(F)cc3)C(=O)C21 (stereo unspecified)	4.2	-16	12	-0.3	-4	2	0	-1.7	0.8	nt
C/C(N)=C(/C#N)C(=O)CN1C(=O)NC(Cc2c[nH]c3ccccc23)C1=O (stereo unspecified)	-2.6	5	3	0.5	-5	10	18	5.1	1.9	24%
O=C(CCN1C(=O)c2ccccc2C1=O)N1CCN(Cc2ccc(Cl)cc2Cl)CC1	-3.9	0	-4	-0.1	-6	nt	nt	nt	nt	21%
COc1cccc(C2(O)CC(C(F)(F)F)=NN2C(=O)c2ccccn2)c1 (stereo unspecified)	2.8	-11	2	0.4	3	-15	-22	0.4	-0.6	nt
CNC(=S)NNC(=O)Cc1ccc(O)cc1	0.2	-9	6	0.7	-3	nt	nt	nt	nt	nt
COc1ccc(Nc2nc(C(=O)N(CCO)Cc3ccccc3)cs2)cc1	4.9	0	-4	-0.6	-9	-30	-30	-4.7	3.1	-2%
O=C(CN1C(=O)COc2ccccc21)NCCN1CCc2ccccc2C1	0.6	-5	-5	-0.4	-2	12	8	0.4	4.1	-1%&-2%
O=c1c2ccccc2nc(SCc2ccccc2Cl)n1Cc1ccccc1	-0.8	38	-4	1.4	9	nt	nt	nt	nt	-7%
O=C(Cn1nc(Cc2cccnc2)c2ccccc2c1=O)Nc1ccc2c(c1)OCO2	5.6	1	1	0.2	0	1	6	-11	-9.0	6%
COc1cc(/C=C(\NC(=O)c2ccccc2)C(=O)NC(C(=O)O)c2ccccc2)cc(OC)c1OC (stereo unspecified)	2.3	-11	4	-1.3	-3	nt	nt	nt	-2.6	nt
CC1CN(C(=O)CCC(=O)N2CCN(c3cccc(C(F)(F)F)c3)CC2)c2ccccc2O1 (stereo unspecified)	2.3	34	5	1.2	9	-2	-62	-9.8	-1.4	1%
COc1ccc(S(=O)(=O)Nc2ccccc2-c2nc3ccccc3[nH]c2=O)cc1	0.9	8	2	-0.3	nt	-4	-2	3.3	-2.8	nt
O=C(NCCc1ccc(Cl)cc1)C1CCN(C(=O)c2sccc2-n2cccc2)CC1	2.1	37	-6	0.2	1	nt	nt	nt	nt	71%
Cn1c(=O)oc2cc(S(=O)(=O)N3CCCC(C(=O)NCC4COc5ccccc5O4)C3)ccc21 (stereo unspecified)	-1.8	-4	6	0.9	5	-6	-17	1.5	-3.7	-2%

Molecule	RanGTP-Impb inh	T cruzi repl	Calb FLC	Bfl-1 A1 inh	Beta cell apopt	Ecoli rRNA inh	Ecoli rRNA inh OD600	Ecoli rRNA inh RFP	MLL AF4-AF9 inh	Vif A3G
COc1ccc(S(=O)(=O)N2CCCOC2CNC(=O)C(=O)NCCCn2ccnc2)cc1 (stereo unspecified)	1.0	-9	-3	-0.2	-1	7	4	-1.6	-1.0	-5%
CC(C)(C)Nc1scc(-c2ccccc2)[n+]1-c1ccccc1	2.8	8	3	0.3	1	9	4	-12	28*	?
CN(C)CCCNC(=O)c1cc(C(=O)Cc2ccccc2)c[nH]1	3.5	32	0	0.8	-1	23	23	2.2	0.1	16%
N#C/C(=C\c1cn(Cc2ccc(C#N)cc2)c2ccccc12)C(=O)NCc1cccs1	-0.1	-15	-3	0.9	-2	nt	nt	nt	-2.1	nt
O=C(Nc1ccccc1C(=O)N1CCN(CCO)CC1)c1cccc([N+](=O)[O-])c1	5.2	-4	-2	-0.2	-12	7	9	-2.9	3.1	-1%
C/C(=C(/NC(=O)c1ccccc1)C(=O)O)c1ccco1	-1.2	9	0	-0.3	-8	8	2	0.7	2.8	15%
CC(=O)Nc1nc(-c2cccs2)cs1	-1.3	1	3	-2.5	-3	nt	nt	nt	nt	21%
CCOC(=O)N1CCN(C(=O)C2CC(=O)N(c3ccc(C)cc3)C2)CC1 (stereo unspecified)	-3.1	-5	-4	0.3	nt	10	13	-2.2	-7.6	11%
COc1ccccc1N(CC(=O)Nc1cc(C)on1)S(=O)(=O)c1cccc(C(F)(F)F)c1	nt	nt	nt	0.7	4	-23	-25	-4.3	1.2	nt
CCCCc1ccc(NC(=S)NCc2ccccc2OC)cc1	-1.2	28	-11	-0.6	12	7	0	0.2	-2.5	nt
CCNC(=S)N1CCN(C(c2ccccc2)c2ccccc2)CC1	2.8	13	0	0.1	nt	-3	-27	-1.9	-47	0%
C=CCc1ccccc1OCC(O)CN1CCN(Cc2ccc3c(c2)OCO3)CC1 (stereo unspecified)	-1.2	15&-4	-38&-33	-0.6&-0.4	-6&-4	-8	-11	5.2	6.1	3%&-3%
COCC(=O)Nc1nnc(SCC(=O)NCc2cccs2)s1	0.7	-6	-7	-0.5	-1	nt	nt	nt	nt	-4%
O=C(CN1CCOCC1)N/N=C/c1ccccc1	?	-6	-15	1.0	-15	7	9	-3.9	-1.0	nt
CCOc1ccc(S(=O)(=O)N(C)c2ccc(OCC(=O)Nc3nc(-c4cc(OC)ccc4OC)cs3)cc2)cc1	2.8	15	-2	1.1	3	4	1	3.7	-0.8	-52%

Molecule	RanGTP-Impb inh	T cruzi repl	Calb FLC	Bfl-1 A1 inh	Beta cell apopt	Ecoli rRNA inh	Ecoli rRNA inh OD600	Ecoli rRNA inh RFP	MLL AF4-AF9 inh	Vif A3G
COc1cccc(NC(=O)CCCCCN2C(=O)[C@@H]3Cc4ccccc4CN3C2=O)c1	2.5	-3	0	1.0	-3	-16	-17	-1.5	-8.1	nt
CCOC(=O)CSc1n[nH]c(NC(=O)NC(C)C)n1	-0.3	12	17	0.4	1	10	11	-0.4	-2.5	-13%
CCC(=O)Nc1cccc(C2=NOC3(C2)C[C@@H](C(N)=O)N(C(=O)C(c2ccccc2)c2ccccc2)C3)c1 (stereo partly specified)	26*	18	5	0.7	0	2	3	-1.6	1.9	6%
CCOc1ccc(N=Nc2c(N)[nH][nH]c2=O)cc1	1.5	-4	10	-5.5	4	6	17	-0.7	6.1	8%
Cc1cc(C(=O)N/N=C/c2c(C)[nH]c3ccccc23)n[nH]1	1.1	-21	-1	0.0	-2	-1	7	0.5	0.8	nt
COc1ccc(Cl)cc1NC(=S)NCCc1ccc(F)cc1	-2.0	31	-35	-0.3	6	nt	nt	nt	nt	-5%
O=C(CNC(=O)c1ccccc1Br)N/N=C/c1cccnc1	3.2	-1	-23	-1.2	-2	4	13	-1.0	-2.8	nt
CCc1cccc(NC(=O)CSCc2nc3sc(C)c(C)c3c(=O)[nH]2)c1	nt	nt	nt	0.5	-2	2	1	2.5	-11	-11%
CCn1c(O)c(N=NC(=O)CNC(=O)c2ccccc2F)c2ccccc21	-0.2	12	nt	0.0	1	-4	-6	-0.8	4.3	nt
Cc1ccccc1OCc1nc(-c2ccccc2)no1	2.4	6	-7	0.1	-1	nt	nt	nt	nt	0%
CCOC(=O)c1[nH]cnc1C(=O)Nc1ccc([N+](=O)[O-])cc1	4.0	3	1	-0.5	8	8	10	-2.5	-2.0	3%
CN(CC(=O)Nc1ccc(S(=O)(=O)N2CCCC2)cc1)Cc1ccc(Cl)cc1Cl	-6.5	11	0	0.7	0	-24	-22	30	-6.4	30%
Cc1cc(C)n2c(SCC(=O)N3CCN(S(=O)(=O)c4ccc(Cl)cc4)CC3)nnc2n1	3.1	-6	0	-0.8	-5	nt	nt	nt	nt	16%
C[C@H](CO)N1C[C@H](C)[C@@H](CN(C)Cc2ccncc2)Oc2c(cccc2N(C)C)C1=O	nt	nt	nt	-0.1	3	1&6	7&14	-2.2&-3.5	-3.1&-5.5	nt
O=C(COC(=O)c1sc2cc(Cl)ccc2c1Cl)Nc1ncc(Cl)cc1Cl	-4.6	-6	-3	1.9	-8	-2	-4	0.8	-0.8	-10%

Molecule	RanGTP-Impb inh	T cruzi repl	Calb FLC	Bfl-1 A1 inh	Beta cell apopt	Ecoli rRNA inh	Ecoli rRNA inh OD600	Ecoli rRNA inh RFP	MLL AF4-AF9 inh	Vif A3G
O=C(CSc1nc2c(sc3ccccc32)c(=O)n1CCCN1CCCC1)NCC1CCCO1 (stereo unspecified)	-0.4	-12	-11	0.3	4	nt	nt	nt	nt	7%
COc1cccc(/C=C(\C)C(=O)c2c(C)cc(C)[nH]c2=O)c1OC	-2.2	-12	4	-0.9	-4	9	5	2.6	-2.0	26%
Cc1cc(C)c(CN2CCC(CO)(CCOc3ccccc3)CC2)cc1C	-2.7	14	5	0.5	0	-56	-71	-28	2.4	0%
CC1(C)CC(=O)C=C(NCCc2ccccc2)C1	-0.2	8	0	-0.4	-9	2	10	-0.5	0.3	nt
COc1ccc(S(=O)(=O)Nc2cccc(-c3ccc4nncn4n3)c2)cc1F	-2.5	-14	-22	-0.9	-2	8	4	3.3	1.0	7%
Cc1c(NC(=S)N2CCN(c3cccc(Cl)c3)CC2)c(=O)n(-c2ccccc2)n1C	-8.6	0	-5	0.5	nt	-17	-9	-3.7	-0.7	nt
